Screening results as filed in PubChem BioAssay.
A1 apoptosis 2: A1 inhibitors via caspase activation, primary screen, cell-based, luminescence, HTS, two replicates; 24,000 tested, under 10 active; MEF A1-2A-BIM cells, caspase-Glo luminescence, 3 h; percent of clofoctol response, DMSO zero; caspase activation, % (no concentration beside the values); in the data active = caspase activation above about 5.9%;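 also: wells of about 30 µL received 50 nL stock; the first replicate is given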
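Material: mouse embryonic fibroblasts co-expressing A1 and BIM (A1-2A-BIM), primed for A1 dependence / Quantity: 2500 cells/well / Buffer or medium: RPMI-1640 growth medium with 10% FBS / Doses: 50 nL compound per well, pinned / Schedule: 3 h compound exposure at 37 °C / Signal: Caspase-Glo luminescence (DEVD substrate) / Measure: Caspase-3/7 activation, seen as rise in luminescence signal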
Active calls of the source: *.

SMILES	A1 apoptosis 2
C[C@@H]1CN([C@H](C)CO)C(=O)Cc2cc(NS(=O)(=O)c3ccc(Cl)cc3)ccc2O[C@@H]1CN(C)C(=O)Nc1cccc2ccccc12	-1.2
C[C@H](CO)N1C[C@H](C)[C@@H](CN(C)C(=O)Nc2ccc(C(F)(F)F)cc2)Oc2ccc(NS(=O)(=O)c3ccccc3)cc2CC1=O	-0.5
C[C@H](CO)N1C[C@H](C)[C@H](CN(C)Cc2ccc(F)cc2)Oc2ncccc2C1=O	0.6
Cc1noc(C)c1S(=O)(=O)Nc1ccc2c(c1)C(=O)N([C@@H](C)CO)C[C@H](C)[C@@H](CN(C)C(=O)c1ccncc1)OCCCC[C@H](C)O2	-0.6
C[C@@H]1CN([C@H](C)CO)C(=O)c2cc(NC(=O)c3ccncc3)ccc2O[C@@H]1CN(C)C(=O)NC1CCCCC1	-0.9
CC(C)NC(=O)Nc1ccc2c(c1)C(=O)N([C@H](C)CO)C[C@H](C)[C@H](CN(C)S(=O)(=O)c1ccc(Cl)cc1)OCCCC[C@@H](C)O2	1.5
COc1ccc(S(=O)(=O)N(C)C[C@H]2OCCCC[C@@H](C)Oc3ccc(NS(=O)(=O)c4c(C)noc4C)cc3C(=O)N([C@H](C)CO)C[C@H]2C)cc1	0.6
C[C@H]1CCCCO[C@H](CN(C)C(=O)CCCN(C)C)[C@@H](C)CN([C@@H](C)CO)C(=O)c2cc(NC(=O)Nc3ccc4c(c3)OCO4)ccc2O1	0.2
C[C@H](CO)N1C[C@H](C)[C@H](CN(C)Cc2ccc(C(=O)O)cc2)Oc2ccc(NS(=O)(=O)c3ccc(Cl)cc3)cc2C1=O	0.1
C[C@H](CO)N1C[C@H](C)[C@H](CN(C)Cc2ccc(Cl)c(Cl)c2)Oc2ccc(NC(=O)C3CC3)cc2C1=O	-0.8
C[C@@H]1CN([C@H](C)CO)C(=O)c2cccc(NS(=O)(=O)c3ccc(Cl)cc3)c2O[C@H]1CN(C)C(=O)Nc1ccccc1	-1.7
C[C@@H]1CCCCO[C@H](CN(C)Cc2ccc(C(=O)O)cc2)[C@@H](C)CN([C@H](C)CO)C(=O)c2cc(NC(=O)Nc3ccc(F)cc3)ccc2O1	0.3
C[C@H](CO)N1C[C@H](C)[C@@H](CN(C)Cc2ccc(Oc3ccccc3)cc2)Oc2ccc(NC(=O)Cc3cn(C)c4ccccc34)cc2CC1=O	-1.1
C[C@H](CO)N1C[C@H](C)[C@@H](CN(C)C(=O)CCC(F)(F)F)OCCCC[C@H](C)Oc2ccc(NC(=O)Cc3ccccc3)cc2C1=O	0.5
Cc1ccc(S(=O)(=O)Nc2ccc3c(c2)C(=O)N([C@@H](C)CO)C[C@@H](C)[C@H](CN(C)C(=O)c2ccncc2)OCCCC[C@H](C)O3)cc1	-0.8
C[C@H]1CN([C@@H](C)CO)C(=O)CCCn2cc(nn2)CO[C@H]1CN(C)C	0.0
Cc1ccc(S(=O)(=O)N(C)C[C@H]2OCCCC[C@@H](C)Oc3ccc(NS(=O)(=O)c4cccs4)cc3C(=O)N([C@@H](C)CO)C[C@H]2C)cc1	-0.8
C[C@@H]1CN([C@@H](C)CO)C(=O)c2cc(NC(=O)Nc3cccc4ccccc34)ccc2O[C@@H]1CN(C)C(=O)Nc1ccc(C(F)(F)F)cc1	-0.2
C[C@@H]1CN([C@H](C)CO)C(=O)c2cccc(N(C)C)c2O[C@H]1CN(C)S(C)(=O)=O	-1.9
C[C@H](CO)N1C[C@H](C)[C@H](CN(C)C(=O)Nc2ccc3c(c2)OCO3)Oc2ccc(NC(=O)CCCCCC(=O)Nc3ccccc3N)cc2C1=O	0.6

The closing six records of the section before are carried over, then new ones follow:
SMILES	A1 apoptosis 2
Cc1ccc(S(=O)(=O)Nc2ccc3c(c2)C(=O)N([C@@H](C)CO)C[C@@H](C)[C@H](CN(C)C(=O)c2ccncc2)OCCCC[C@H](C)O3)cc1	-0.8
C[C@H]1CN([C@@H](C)CO)C(=O)CCCn2cc(nn2)CO[C@H]1CN(C)C	0.0
Cc1ccc(S(=O)(=O)N(C)C[C@H]2OCCCC[C@@H](C)Oc3ccc(NS(=O)(=O)c4cccs4)cc3C(=O)N([C@@H](C)CO)C[C@H]2C)cc1	-0.8
C[C@@H]1CN([C@@H](C)CO)C(=O)c2cc(NC(=O)Nc3cccc4ccccc34)ccc2O[C@@H]1CN(C)C(=O)Nc1ccc(C(F)(F)F)cc1	-0.2
C[C@@H]1CN([C@H](C)CO)C(=O)c2cccc(N(C)C)c2O[C@H]1CN(C)S(C)(=O)=O	-1.9
C[C@H](CO)N1C[C@H](C)[C@H](CN(C)C(=O)Nc2ccc3c(c2)OCO3)Oc2ccc(NC(=O)CCCCCC(=O)Nc3ccccc3N)cc2C1=O	0.6
O=C(NO)c1cccc(C(=O)N/N=C/c2cccc(O)c2O)c1	-5.6
C[C@H](CO)N1C[C@H](C)[C@@H](CN(C)C(=O)Nc2ccc(C(F)(F)F)cc2)Oc2c(NC(=O)c3cnccn3)cccc2C1=O	0.5
COc1ccc([Si](C)(C)[C@@H]2[C@@H](CCO)O[C@]3(C(=O)N(C)c4ccccc43)[C@H]2C)cc1	2.0
CNC[C@@H]1Oc2ccc(NC(=O)Nc3cccc4ccccc34)cc2CC(=O)N([C@@H](C)CO)C[C@@H]1C	0.6
C[C@H]1CN([C@@H](C)CO)C(=O)Cc2cc(NC(=O)Nc3ccc(F)cc3)ccc2O[C@H]1CN(C)Cc1ccc(C(=O)O)cc1	-0.5
COc1cccc(NC(=O)N(C)C[C@H]2OCc3cn(nn3)CCCC(=O)N([C@@H](C)CO)C[C@@H]2C)c1	-0.4
Cc1noc(C)c1NC(=O)N(C)C[C@@H]1OCCCC[C@@H](C)Oc2ccc(NS(C)(=O)=O)cc2C(=O)N([C@H](C)CO)C[C@@H]1C	0.3
C[C@@H]1CN([C@H](C)CO)C(=O)c2cccc(NS(=O)(=O)c3cn(C)cn3)c2O[C@@H]1CN(C)C(=O)Nc1ccc(C(F)(F)F)cc1	1.7
C[C@@H]1CCCCO[C@H](CN(C)C(=O)Cc2ccccc2)[C@@H](C)CN([C@H](C)CO)C(=O)c2cc(NS(=O)(=O)c3cn(C)cn3)ccc2O1	-1.1
C[C@H](CO)N1C[C@H](C)[C@H](CN(C)S(=O)(=O)c2ccccc2)Oc2ccc(NC(=O)Cn3cnnn3)cc2CC1=O	0.0
COc1ccc(CN(C)C[C@@H]2Oc3ccc(NC(=O)Nc4c(C)noc4C)cc3CC(=O)N([C@H](C)CO)C[C@H]2C)cc1	1.1
CC(C)(C)[C@H]1C=C(C(=O)N2CCN(Cc3ccc4c(c3)OCO4)CC2)O[C@@H](OCCCCO)C1	0.2
COc1ccc(NC(=O)N(C)C[C@H]2Oc3ccc(NC(=O)Nc4c(C)noc4C)cc3CC(=O)N([C@H](C)CO)C[C@H]2C)cc1	-1.1
O=C(CCCCCCC(=O)Nc1ccccc1O)N/N=C/c1ccccc1Cl	0.1
Cc1ccc(S(=O)(=O)N(C)C[C@H]2OCCCC[C@@H](C)Oc3ccc(N(C)C)cc3C(=O)N([C@@H](C)CO)C[C@H]2C)cc1	-0.4
COc1ccc(CN(C)C[C@H]2Oc3ccc(NS(C)(=O)=O)cc3C(=O)N([C@H](C)CO)C[C@@H]2C)cc1	0.3
C[C@H](CO)N1C[C@H](C)[C@@H](CN(C)C(=O)Nc2ccc3c(c2)OCO3)Oc2ccc(NC(=O)c3ccncc3)cc2C1=O	0.1
CC(C)NC(=O)Nc1ccc2c(c1)C(=O)N([C@H](C)CO)C[C@@H](C)[C@@H](CN(C)Cc1ccc(C(F)(F)F)cc1)O2	-0.7
C[C@@H]1CN([C@@H](C)CO)C(=O)c2cc(NS(=O)(=O)c3ccc(Cl)cc3)ccc2O[C@@H]1CN(C)S(=O)(=O)c1ccccc1	-0.9
Cc1noc(C)c1NC(=O)Nc1ccc2c(c1)C(=O)N([C@@H](C)CO)C[C@H](C)[C@@H](CN(C)Cc1ccc(C(=O)Nc3ccccc3N)cc1)O2	-0.7

Some values from above.
A1 apoptosis 2, COc1ccc(NC(=O)N(C)C[C@H]2Oc3ccc(NC(=O)Nc4c(C)noc4C)cc3CC(=O)N([C@H](C)CO)C[C@H]2C)cc1 stands at -1.1
A1 apoptosis 2, C[C@H](CO)N1C[C@H](C)[C@H](CN(C)S(=O)(=O)c2ccccc2)Oc2ccc(NC(=O)Cn3cnnn3)cc2CC1=O stands at 0.0

Next structures:
SMILES	A1 apoptosis 2
O=C(N/N=C/c1ccc(O)c2ccccc12)c1ccccn1	-1.5
C[C@H](CO)N1C[C@H](C)[C@H](CN(C)S(=O)(=O)c2ccc(Cl)cc2)Oc2ccc(NC(=O)Nc3ccc(F)cc3)cc2CC1=O	0.2
Cc1ccc(S(=O)(=O)N(C)C[C@@H]2OCCCC[C@@H](C)Oc3ccc(NC(=O)NC4CCCCC4)cc3C(=O)N([C@H](C)CO)C[C@@H]2C)cc1	0.0
C[C@@H]1CN([C@@H](C)CO)C(=O)Cc2cc(NC(=O)Cc3cn(C)c4ccccc34)ccc2O[C@@H]1CN(C)S(=O)(=O)c1ccccc1	-0.6
CNC[C@@H]1Oc2c(NS(=O)(=O)c3ccc(OC)cc3)cccc2C(=O)N([C@H](C)CO)C[C@@H]1C	-0.5
C[C@H](CO)N1C[C@H](C)[C@@H](CN(C)C(=O)Nc2ccccc2F)OCc2cn(nn2)CCCC1=O	-0.3
Cc1ccc(S(=O)(=O)Nc2cccc3c2O[C@@H](CN(C)Cc2ccncc2)[C@H](C)CN([C@H](C)CO)C3=O)cc1	0.0
COc1ccc(S(=O)(=O)Nc2ccc3c(c2)CC(=O)N([C@H](C)CO)C[C@@H](C)[C@@H](CN(C)Cc2ccc(C(=O)Nc4ccccc4N)cc2)O3)cc1	0.3
C[C@H]1CN([C@@H](C)CO)C(=O)Cc2cc(NS(=O)(=O)c3ccc(F)cc3)ccc2O[C@@H]1CN(C)S(=O)(=O)c1cn(C)cn1	-0.8
O=S(=O)(NCCCO)c1ccc(Br)cc1	-0.2
C[C@@H]1CCCCO[C@@H](CN(C)S(=O)(=O)c2ccccc2)[C@@H](C)CN([C@@H](C)CO)C(=O)c2cc(NC(=O)CCCN(C)C)ccc2O1	0.0
O=C(O)C1=C[C@@H](C2CCCCC2)C[C@@H](OCCCCO)O1	-0.7
COC(=O)C(CC#Cc1ccc2c(c1)[C@]1(C(=O)N2)[C@H](C(N)=O)[C@H]2C(=O)O[C@H](c3ccccc3)[C@H](c3ccccc3)N2[C@@H]1c1ccccc1OCCO)C(=O)OC	-0.1
C[C@H]1CN([C@@H](C)CO)C(=O)c2cccc(NC(=O)CCCCCC(=O)Nc3ccccc3N)c2O[C@@H]1CN(C)C(=O)Nc1ccc(C(F)(F)F)cc1	0.2
Cc1ccc(S(=O)(=O)Nc2ccc3c(c2)C(=O)N([C@H](C)CO)C[C@H](C)[C@H](CN(C)C(=O)NC(C)C)OCCCC[C@@H](C)O3)cc1	-0.6
C[C@H](CO)N1C[C@H](C)[C@@H](CN(C)S(C)(=O)=O)Oc2ccc(NS(=O)(=O)c3cn(C)cn3)cc2CC1=O	0.3
O=C(N/N=C/c1cc(O)ccc1O)c1ccccn1	-12.4
CC(C)(C)OC(=O)Nc1cccc(/C=N/NC(=O)c2ccc(C(=O)NO)cc2)c1	1.5
C[C@@H]1CN([C@H](C)CO)C(=O)c2cc(NS(=O)(=O)c3cccs3)ccc2O[C@@H](C)CCCCO[C@H]1CN(C)C(=O)C1CCCCC1	-0.2
O=C(NO)c1ccc(C(=O)N/N=C/c2ccc(F)c(Oc3ccccc3)c2)cc1	-0.4
C[C@@H]1CN([C@H](C)CO)C(=O)c2cccc(NC(=O)Nc3cccc4ccccc34)c2O[C@H]1CN(C)S(=O)(=O)c1cccs1	0.7
C[C@@H]1CCCCO[C@@H](CN(C)C(=O)Nc2ccc(F)cc2)[C@@H](C)CN([C@@H](C)CO)C(=O)c2cc(NC(=O)NC3CCCCC3)ccc2O1	-0.2
COc1ccc(S(=O)(=O)N(C)C[C@@H]2OCCCC[C@H](C)Oc3ccc(NS(=O)(=O)c4ccccc4)cc3C(=O)N([C@@H](C)CO)C[C@@H]2C)cc1	0.9
C[C@H](CO)N1C[C@H](C)[C@@H](CN(C)S(=O)(=O)c2ccc(F)cc2)Oc2c(NC(=O)c3ccncc3)cccc2C1=O	-0.6
Cc1ccc(/C=N/NC(=O)CCCCCCC(=O)O)o1	0.6
C[C@H]1CN([C@@H](C)CO)C(=O)CCCn2cc(nn2)CO[C@@H]1CN(C)CC1CCCC1	0.6
C[C@H]1CCCCO[C@@H](CN(C)C)[C@@H](C)CN([C@@H](C)CO)C(=O)c2cc(NC(=O)Nc3ccc4c(c3)OCO4)ccc2O1	1.3
C[C@H]1CCCCO[C@H](CN(C)C(=O)Nc2ccccc2)[C@@H](C)CN([C@@H](C)CO)C(=O)c2cc(NC(=O)CCCN(C)C)ccc2O1	-1.3
Cc1ccc(S(=O)(=O)Nc2ccc3c(c2)C(=O)N([C@@H](C)CO)C[C@H](C)[C@H](CN(C)CC2CCCCC2)OCCCC[C@H](C)O3)cc1	-0.3
C[C@@H]1CN([C@H](C)CO)C(=O)c2cc(NC(=O)Nc3ccc(C(F)(F)F)cc3)ccc2O[C@H]1CN(C)S(=O)(=O)c1ccc(F)cc1	-1.5
C[C@@H]1CN([C@H](C)CO)C(=O)c2cc(N(C)C)ccc2O[C@H]1CN(C)C(=O)Nc1ccc2c(c1)OCO2	1.7
C[C@@H]1CN([C@@H](C)CO)C(=O)Cc2cc(NC(=O)c3ccncc3)ccc2O[C@H]1CN(C)C(=O)Nc1ccccc1	-1.6
CC(C)NC(=O)Nc1ccc2c(c1)C(=O)N([C@@H](C)CO)C[C@H](C)[C@H](CN(C)C(=O)c1ccccc1)OCCCC[C@@H](C)O2	0.1

A portion of the library. The share of hits here may be higher or lower than overall.
